# AF4-AF9 inh – MLL-AF4/AF9 protein interaction inhibition. inhibition, % at 10 µM. P42568. AID 651704. AlphaScreen, biotin-AF4 peptide binding to FLAG-AF9. actives 0.47% (n = 350,000);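 active means every replicate reaching a set inhibition limit, whatever the replicate mean, cut at about 25% in these data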;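 further: 0% = plate neutral control median and 100% = total signal loss; the record names both 10 and 1 µM as test concentration; the first replicate is given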
# Target sequence (P42568 whole entry, looked up): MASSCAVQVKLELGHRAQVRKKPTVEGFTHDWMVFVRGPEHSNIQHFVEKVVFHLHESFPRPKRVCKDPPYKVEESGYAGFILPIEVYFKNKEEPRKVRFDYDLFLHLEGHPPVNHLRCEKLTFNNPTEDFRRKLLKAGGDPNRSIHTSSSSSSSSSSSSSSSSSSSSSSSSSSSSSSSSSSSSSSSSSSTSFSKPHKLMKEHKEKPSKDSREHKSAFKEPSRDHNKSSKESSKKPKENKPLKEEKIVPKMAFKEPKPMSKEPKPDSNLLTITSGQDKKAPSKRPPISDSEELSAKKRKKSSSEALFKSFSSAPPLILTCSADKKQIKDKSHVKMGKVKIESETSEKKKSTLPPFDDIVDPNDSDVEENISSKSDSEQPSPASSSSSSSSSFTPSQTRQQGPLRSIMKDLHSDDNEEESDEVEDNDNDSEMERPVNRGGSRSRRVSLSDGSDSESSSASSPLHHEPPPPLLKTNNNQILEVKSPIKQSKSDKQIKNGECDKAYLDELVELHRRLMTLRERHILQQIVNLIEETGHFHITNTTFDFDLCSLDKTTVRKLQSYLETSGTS
# Starred values were filed as active, the others as inactive; & = joins results of further samples.
AF4-AF9 inh | SMILES
-13 | O=C1CCC[C@@H]2Cc3nc4ccc(Cl)cc4cc3[C@@H]3CCN1[C@H]23
-1.6 | C[C@H](NC(=O)C[C@H]1C[C@@H]2c3cc(NC(=O)C4CCC4)ccc3O[C@@H]2[C@H](CO)O1)c1ccccc1
0.3 | CCCN1CCN(C(=O)Cn2nc(C)n3c(cc4c(OC)cccc43)c2=O)CC1
0.0 | Cc1ccc(S(=O)(=O)Nc2cccc3c2O[C@@H](CN(C)Cc2ccccc2)[C@H](C)CN([C@H](C)CO)C3=O)cc1
1.0 | CO[C@H]1CN(C)C(=O)c2cc(NC(=O)C3CC3)ccc2OC[C@H](C)N(CC2CCCC2)C[C@@H]1C
6.8 | CN(C)CC(=O)N1CCCCN2[C@@H](CO)[C@@H](c3ccc(-c4ccccc4)cc3)[C@@H]2C1
-7.7 | COc1ccc(CN(C)C[C@H]2Oc3ccc(NS(=O)(=O)c4ccc(C)cc4)cc3C(=O)N([C@@H](C)CO)C[C@@H]2C)cc1
1.7 | CCOC(=O)C1CCCN(C(=O)c2ccc(C)c(F)c2)CC1 (centres undefined)
-2.6 | Cc1noc(C)c1NC(=O)N(C)C[C@@H]1OCCCC[C@H](C)Oc2ccc(NC(=O)NC(C)C)cc2C(=O)N([C@@H](C)CO)C[C@@H]1C
-3.8 | CCC(=O)N1CC2(CCN(C(=O)Nc3c(C)noc3C)CC2)c2c([nH]c3cc(OC)ccc23)[C@H]1CO
-6.2 | Cc1ccc(S[C@]2(C(=O)NC(C)C)CC(=O)N(C(C)C)[C@@H]2c2ccc(CO)cc2I)cc1
-3.4 | C[C@@H]1CN([C@H](C)CO)C(=O)Cc2cc(NC(=O)C3CC3)ccc2O[C@H]1CN(C)Cc1ccc2c(c1)OCO2
5.3 | COc1ccc(Cc2c(-c3ccco3)nc3c(C)cc(Br)cn23)c(C)c1
-1.3 | CCC(=O)N1CCCCN2[C@H](C1)[C@H](c1ccc(C#CCOC)cc1)[C@@H]2CO
0.2 | C[C@@H]1CN([C@@H](C)CO)C(=O)c2cc(NC(=O)C3CC3)ccc2O[C@H]1CN(C)Cc1ccc(C(=O)Nc2ccccc2N)cc1
-3.4 | CCCNC(=O)Nc1ccc2c(c1)C(=O)N(C)C[C@@H](OC)[C@H](C)CN(C(C)=O)[C@@H](C)CO2
-0.3 | CNC(=O)C[C@H]1CC[C@@H]2[C@H](COC[C@H](O)CN2Cc2ccccc2F)O1
0.1 | COc1ccc(-c2cn(CC[C@H]3CC[C@H](NC(=O)c4cnccn4)[C@H](CO)O3)nn2)cc1
-4.4 | C[C@H](CO)N1C[C@H](C)[C@@H](CN(C)S(=O)(=O)c2ccc(Cl)cc2)OCCCC[C@H](C)Oc2ccc(NC(=O)Nc3cccc4ccccc34)cc2C1=O
0.7 | CCCC(=O)N1C[C@H]2[C@@H](c3ccccc31)[C@@H](CO)N2C(=O)Nc1ccc(F)cc1
0.3 | O=C(C[C@H]1CC[C@@H]2[C@H](COC[C@H](O)CN2Cc2cc(F)ccc2F)O1)NCc1ccccc1
-2.5 | C[C@H](CO)N1C[C@H](C)[C@@H](CN(C)C(=O)Nc2cccc3ccccc23)Oc2c(NC(=O)c3cnccn3)cccc2C1=O
3.6 | COCC(=O)N(C)C[C@H]1Oc2cc(C3=CCCCC3)ccc2S(=O)(=O)N([C@H](C)CO)C[C@H]1C
-8.7 | O=C(Nc1ccc(F)cc1)N1CC(=O)N2[C@H](C1)[C@@H](c1ccc(-c3cccc(F)c3)cc1)[C@@H]2CO
3.1 | Cc1cccc2nc(Cn3c(=O)n(CCC(=O)NCc4ccco4)c(=O)c4ccccc43)cc(=O)n12

# Ordered by molar mass (ascending): some entries from above.
AF4-AF9 inh | SMILES
1.7 | CCOC(=O)C1CCCN(C(=O)c2ccc(C)c(F)c2)CC1 (centres undefined)
-13 | O=C1CCC[C@@H]2Cc3nc4ccc(Cl)cc4cc3[C@@H]3CCN1[C@H]23
-0.3 | CNC(=O)C[C@H]1CC[C@@H]2[C@H](COC[C@H](O)CN2Cc2ccccc2F)O1
0.7 | CCCC(=O)N1C[C@H]2[C@@H](c3ccccc31)[C@@H](CO)N2C(=O)Nc1ccc(F)cc1
5.3 | COc1ccc(Cc2c(-c3ccco3)nc3c(C)cc(Br)cn23)c(C)c1
-3.4 | CCCNC(=O)Nc1ccc2c(c1)C(=O)N(C)C[C@@H](OC)[C@H](C)CN(C(C)=O)[C@@H](C)CO2
0.3 | O=C(C[C@H]1CC[C@@H]2[C@H](COC[C@H](O)CN2Cc2cc(F)ccc2F)O1)NCc1ccccc1
-8.7 | O=C(Nc1ccc(F)cc1)N1CC(=O)N2[C@H](C1)[C@@H](c1ccc(-c3cccc(F)c3)cc1)[C@@H]2CO
1.0 | CO[C@H]1CN(C)C(=O)c2cc(NC(=O)C3CC3)ccc2OC[C@H](C)N(CC2CCCC2)C[C@@H]1C
3.6 | COCC(=O)N(C)C[C@H]1Oc2cc(C3=CCCCC3)ccc2S(=O)(=O)N([C@H](C)CO)C[C@H]1C
3.1 | Cc1cccc2nc(Cn3c(=O)n(CCC(=O)NCc4ccco4)c(=O)c4ccccc43)cc(=O)n12
0.0 | Cc1ccc(S(=O)(=O)Nc2cccc3c2O[C@@H](CN(C)Cc2ccccc2)[C@H](C)CN([C@H](C)CO)C3=O)cc1
-6.2 | Cc1ccc(S[C@]2(C(=O)NC(C)C)CC(=O)N(C(C)C)[C@@H]2c2ccc(CO)cc2I)cc1
0.2 | C[C@@H]1CN([C@@H](C)CO)C(=O)c2cc(NC(=O)C3CC3)ccc2O[C@H]1CN(C)Cc1ccc(C(=O)Nc2ccccc2N)cc1
-2.6 | Cc1noc(C)c1NC(=O)N(C)C[C@@H]1OCCCC[C@H](C)Oc2ccc(NC(=O)NC(C)C)cc2C(=O)N([C@@H](C)CO)C[C@@H]1C

# Back to the main list, repeating the three entries before the break.
AF4-AF9 inh | SMILES
3.6 | COCC(=O)N(C)C[C@H]1Oc2cc(C3=CCCCC3)ccc2S(=O)(=O)N([C@H](C)CO)C[C@H]1C
-8.7 | O=C(Nc1ccc(F)cc1)N1CC(=O)N2[C@H](C1)[C@@H](c1ccc(-c3cccc(F)c3)cc1)[C@@H]2CO
3.1 | Cc1cccc2nc(Cn3c(=O)n(CCC(=O)NCc4ccco4)c(=O)c4ccccc43)cc(=O)n12
-1.1 | COc1ccc(S(=O)(=O)N(C)C[C@@H]2Oc3c(NS(=O)(=O)c4cccs4)cccc3C(=O)N([C@H](C)CO)C[C@@H]2C)cc1
-2.5 | COCC#Cc1ccc([C@@H]2[C@H]3CN(C(=O)Nc4ccc(F)cc4)CC(=O)N3[C@H]2CO)cc1
-9.1 | COCCNC(=O)[C@@H]1[C@@H](CO)[C@@H]2Cn3c(ccc(C4=CCCCC4)c3=O)[C@H]1N2C(=O)C1CCCC1
-1.1 | C[C@@H]1CN([C@H](C)CO)C(=O)c2cccc(NC(=O)NC3CCCCC3)c2O[C@H]1CN(C)S(=O)(=O)c1ccc(F)cc1
-2.5 | C[C@@H]1CN([C@@H](C)CO)C(=O)c2cc(NC(=O)Nc3ccc(C(F)(F)F)cc3)ccc2O[C@H]1CN(C)C(=O)Nc1ccc(F)cc1
-4.8 | CNC[C@H]1Oc2c(N)cccc2C(=O)N([C@H](C)CO)C[C@@H]1C
-6.8 | CN(C)C(=O)C[C@@H]1CC[C@@H]2[C@H](COC[C@H](O)CN2Cc2nccs2)O1
1.1 | CC(C)NC(=O)N1C[C@H]2[C@@H](c3ccccc31)[C@@H](CO)N2C(=O)c1ccc(F)cc1
-3.2 | C[C@@H](O)C#Cc1cnc2c(c1)C(=O)N([C@@H](C)CO)C[C@H](C)[C@H](CN(C)C(=O)CN1CCOCC1)O2
-1.4 | CN1C[C@@H]2[C@H](c3ccccc31)[C@H](CO)N2C(=O)c1ccccn1
8.0 | O=C(c1cnccn1)N1CC(=O)N2[C@H](C1)[C@@H](c1ccc(C#CC3CCCCC3)cc1)[C@@H]2CO
1.0 | O=C(C[C@@H]1CC[C@H]2[C@@H](COC[C@@H](O)CN2C(=O)Nc2ccc(Cl)cc2)O1)NCCc1ccncc1
-3.6&1.5 | COC(=O)C1(C(=O)OC)C[C@H](/C=C/c2ccccc2)N(Cc2ccccc2OC)[C@@H]1c1cccs1
2.1 | C[C@H]1CN([C@@H](C)CO)S(=O)(=O)c2ccc(C#Cc3ccccn3)cc2O[C@H]1CN(C)CC1CC1
-4.4&-5.2 | COC(=O)N(C)C[C@H]1OCc2cn(nn2)CCCC(=O)N([C@@H](C)CO)C[C@@H]1C
-7.7 | Cc1ccc(NC(=O)Nc2ccc3c(c2)C(=O)N(C)[C@@H]2CC[C@H](CC(=O)O)O[C@H]2CO3)cc1
-11 | CCCNCC(=O)Nc1sc2c(c1C(=O)Nc1c(C)n(C)n(-c3ccccc3)c1=O)CCCC2
-32 | Cc1ccc(S(=O)(=O)Nc2ccc3c(c2)CC(=O)N([C@H](C)CO)C[C@H](C)[C@@H](CN(C)S(=O)(=O)c2cccs2)O3)cc1
4.5 | C[C@H]1CCCCO[C@H](CN(C)Cc2ccccc2)[C@@H](C)CN([C@@H](C)CO)C(=O)c2cc(NC(=O)NC3CCCCC3)ccc2O1
-1.6 | CCc1csc(N2[C@H](C#N)[C@H](c3ccc(-c4cccc(F)c4)cc3)[C@H]2CO)n1
0.3 | O=C(NCC[C@H]1CC[C@H](NS(=O)(=O)Cc2ccccc2)[C@H](CO)O1)C1CCCCC1
-0.7 | O=C(C1CCC1)N1CCCCN2[C@H](C1)[C@@H](c1ccc(C#CC3CCCC3)cc1)[C@@H]2CO
0.3 | O=C(NC1CCCC1)[C@H]1[C@H](CO)[C@H]2Cn3c(ccc(-c4ccccc4F)c3=O)[C@@H]1N2C(=O)CC1CC1
0.7 | O=C(COC(=O)c1ccc(F)cc1Cl)NC1CC1
-3.3 | C[C@@H]1CN([C@H](C)CO)C(=O)c2cc(-c3ccccc3)cnc2O[C@@H]1CN(C)Cc1cccnc1
0.8 | O=C1NC[C@@H](CCCCN2CCN(CCC3CCCCC3)C(=O)C2=O)N(CCC2CCCCC2)C1=O
-1.4 | Cc1noc(C)c1NC(=O)Nc1ccc2c(c1)C(=O)N([C@@H](C)CO)C[C@H](C)[C@H](CN(C)S(=O)(=O)c1cccs1)OCCCC[C@@H](C)O2
0.1 | COc1ccccc1C(O)c1ncc(-c2ccc(Cl)cc2)[nH]1 (centres undefined)
3.0 | COCC#Cc1ccc([C@@H]2[C@H]3CN(Cc4ccccc4F)CCCCN3[C@H]2CO)cc1
2.0 | C[C@H](CO)N1C[C@H](C)[C@@H](CN(C)Cc2ccncc2)OCc2ccccc2-c2c(n(C)c3ccccc23)C1=O
4.4 | OC[C@@H]1[C@@H](c2ccccc2)C2(CN(CCC(F)(F)F)C2)N1Cc1cccnc1
-8.5 | CCC(=O)Nc1ccc2c(c1)OC[C@@H](C)N(C(=O)CC1CC1)C[C@@H](C)[C@H](OC)CN(C)C2=O
-3.8 | C[C@H](CO)N1C[C@H](C)[C@@H](CN(C)C(=O)Nc2ccccc2)Oc2ccc(NC(=O)NC3CCCCC3)cc2CC1=O
5.2 | CC(C)C#Cc1ccc([C@@H]2[C@@H](CO)N3CCCCN(CC4CC4)C[C@H]23)cc1
1.5 | C[C@@H]1CCCCO[C@H](CN(C)S(=O)(=O)c2ccc(Cl)cc2)[C@@H](C)CN([C@@H](C)CO)C(=O)c2cc(NC(=O)CCC(F)(F)F)ccc2O1
0.0 | C[C@H]1CN([C@@H](C)CO)C(=O)c2cc(NS(=O)(=O)c3ccc(Cl)cc3)ccc2O[C@@H]1CN(C)C(=O)Nc1ccc(F)cc1
-11 | CCC(=O)N(C)C[C@H]1Oc2ncc(-c3ccc(C)cc3)cc2C(=O)N([C@H](C)CO)C[C@H]1C
5.0 | O=C(Cc1cccnc1)N1CC(=O)N2[C@H](CO)[C@@H](c3ccc(C4=CCCCC4)cc3)[C@H]2C1
1.1 | O=C(C[C@H]1C[C@H]2c3cc(NC(=O)NC4CCCC4)ccc3O[C@H]2[C@H](CO)O1)NCc1ccccc1
1.7 | C[C@H](CO)N1C[C@H](C)[C@H](CN(C)Cc2ccccc2)Oc2ncc(C#CCc3ccccc3)cc2C1=O
-22 | CC=Cc1ccc2n(c1=O)C[C@@H]1[C@@H](CO)[C@H](C(=O)NC3CCCC3)[C@H]2N1Cc1ccncc1 (mixture of isomers)
-3.7 | CC(=O)Nc1cccc(-c2ccnc3c2CC(C)(C(=O)Nc2cccnc2)O3)c1 (centres undefined)
-3.7 | COCC(=O)Nc1ccc2c(c1)C(=O)N(C)C[C@@H](OC)[C@@H](C)CN(Cc1ccncc1)[C@H](C)CO2
-0.2 | O=C(C1CCOCC1)N1CC(=O)N2[C@H](CO)[C@@H](c3ccc(C#CC4CCCC4)cc3)[C@@H]2C1
0.8 | C[C@H]1CN([C@@H](C)CO)C(=O)c2cccc(NC(=O)C3CCCCC3)c2O[C@@H]1CN(C)C(=O)Nc1cccc2ccccc12
-1.1 | CO[C@H]1CN(C)C(=O)c2ccc(NC(=O)C3CC3)cc2OC[C@H](C)N(C(=O)c2cnccn2)C[C@H]1C
1.7 | CCCCCCCCN1C(=O)[C@@H](CC(=O)NCCCN2CCCC2=O)C[C@@]2(C(=O)OC)C1=C[C@H](C(C)(C)C)O[C@@H]2C

# Not all compounds are listed. The share of hits here may be higher or lower than overall.
